# Assay outcomes as filed in PubChem.
# NPR1 antag = blocks ANP-stimulated signaling of human Npr1 receptor; 76,000 compounds, 1.6% hits; AID 1347048; HEK293 hNpr1 GloSensor cGMP, ANP-stimulated luminescence; Potency, µM (titrated, usually from 46.3 µM), without a hit: at the highest dose activity change, negative = inhibition, actives largely listed as inhibitors; P16066; active = well fitted inhibition curve with a large enough effect; inconclusive = small, poorly fitted or top-dose-only effect; inactive = no such curve, though single readings can be large or run the other way;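 also: nearly all actives have a fitted effect of over 60% in size; nearly all hits also lower the signal before the agonist is added; a reference antagonist and vehicle were the controls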
# Target sequence (P16066 whole entry, looked up): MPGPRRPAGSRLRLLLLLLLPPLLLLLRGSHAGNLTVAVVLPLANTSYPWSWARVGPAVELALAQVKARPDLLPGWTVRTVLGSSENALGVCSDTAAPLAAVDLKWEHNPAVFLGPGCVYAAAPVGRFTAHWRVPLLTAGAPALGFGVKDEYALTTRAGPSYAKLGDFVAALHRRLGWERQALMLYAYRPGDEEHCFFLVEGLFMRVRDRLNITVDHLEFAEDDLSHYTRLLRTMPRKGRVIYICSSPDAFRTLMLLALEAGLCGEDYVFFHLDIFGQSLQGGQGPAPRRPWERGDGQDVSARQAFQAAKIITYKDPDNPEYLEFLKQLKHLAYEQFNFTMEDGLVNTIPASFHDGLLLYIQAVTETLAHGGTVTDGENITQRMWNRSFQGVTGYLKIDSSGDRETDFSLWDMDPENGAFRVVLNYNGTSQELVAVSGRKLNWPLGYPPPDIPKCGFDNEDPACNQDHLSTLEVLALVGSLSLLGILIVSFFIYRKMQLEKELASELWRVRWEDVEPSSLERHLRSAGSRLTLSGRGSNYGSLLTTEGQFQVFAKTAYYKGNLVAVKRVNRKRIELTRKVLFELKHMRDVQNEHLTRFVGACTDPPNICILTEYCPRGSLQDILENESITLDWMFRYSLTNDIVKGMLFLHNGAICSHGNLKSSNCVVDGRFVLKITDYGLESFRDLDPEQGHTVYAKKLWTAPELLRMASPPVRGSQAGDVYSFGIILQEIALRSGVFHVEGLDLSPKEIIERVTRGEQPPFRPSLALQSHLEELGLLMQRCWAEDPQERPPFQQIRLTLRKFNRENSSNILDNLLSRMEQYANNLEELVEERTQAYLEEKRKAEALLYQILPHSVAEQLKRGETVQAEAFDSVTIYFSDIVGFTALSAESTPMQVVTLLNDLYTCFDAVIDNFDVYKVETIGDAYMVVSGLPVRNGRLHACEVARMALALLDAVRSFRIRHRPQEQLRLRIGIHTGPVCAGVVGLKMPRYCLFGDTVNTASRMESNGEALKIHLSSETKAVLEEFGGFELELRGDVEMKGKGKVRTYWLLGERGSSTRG
#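 Compound pre-incubated 30 min at room temperature on GloSensor-loaded HEK293 cells stably carrying hNpr1 and the pGS-40F cGMP biosensor. Stimulation uses hNppA at 0.1 nM final; luminescence is taken at baseline and 20 min post-agonist.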
# The depositor's hits bear a star; ? = inconclusive; [ ] = another dose, or the depositor's remark. % is scaled to controls: 0 for no effect and ±100 for the full control effect; potency is read from the fitted curve at half-maximal effect. Some of the compounds tested. The share of hits here may be higher or lower than overall.
SMILES,NPR1 antag
O=C(Nc1ccc(Cl)cc1)C1CC(=O)N(c2n[nH]c3cccc(F)c23)C1 (centres undefined),-1%
CCOc1ccc(NC(=O)Cn2c(=O)n(-c3ccccc3)c(=O)c3c2cc(C)n3C)cc1,-1%
CC1=C[C@@H](CNC(=O)c2ccc(F)cc2)[C@H](C(C)C)C[C@H]1Cc1nnc(-c2ccncc2)o1,?
O=S(=O)(NC[C@H]1O[C@@H](CO)[C@@H](O)[C@H]1N1CCN(c2ccccn2)CC1)c1ccccc1,-1%
COc1cccc(C(=O)NCCC2CCN(C(=O)Nc3ccc(C)c(F)c3)CC2)c1,-3%
CN(Cc1nc2ccsc2c(=O)[nH]1)C(=O)C1NCCc2[nH]cnc21 (centres undefined),2%
COc1cc(C)c2c(c1C)C[C@H](C(C)C(=O)N1CCSCC1)CC2 (some centres undefined),?
CCOc1ccc(NC(=O)Cn2c(-c3cnccn3)nc(C)c(CCO)c2=O)cc1,-7%
CC(C)(c1nc(-c2cccnn2)no1)n1cccc1,3%
COc1ccc(CCC(=O)NCCC2CCN(C(=O)Nc3cc(F)ccc3F)CC2)cc1,-15%
CC(C)CC(NC(=O)c1cccc(-n2cnnc2)c1)c1ncnn1C (centres undefined),-2%
O=C(NCc1ccccc1)O[C@@H]1CO[C@H]2[C@@H]1OC[C@@H]2Nc1nccc(-c2ccc3c(c2)OCO3)n1,?
COc1cccc(CC(=O)N2CCC3(CC2)CC(OC)CCO3)c1 (centres undefined),-2%
Cc1ccc(S(=O)(=O)N2CCC(CC(=O)NCc3ccccc3)C2)c(C)c1 (centres undefined),0%
Cc1ccc(C)c(C(O)Cn2ccn3nc(-c4cccs4)cc3c2=O)c1 (centres undefined),-21%
CC(C)CNC(=O)N1CC(Oc2ccc(-c3noc(C4CCOCC4)n3)cc2)C1,14µM*
O=C(Nc1cccnc1)c1cc(-c2ccccc2F)cc2c1OCCN2Cc1cccnc1,?
CC1=C[C@@H](CNS(C)(=O)=O)[C@H](C(C)C)C[C@H]1Cc1nc2ccccc2[nH]1,?
CN1CCC(Oc2ccc(NC(=O)C3(c4ccccc4)CC3)cn2)CC1,-2%
COc1cccc2c1OCC(CNC(=O)c1ccccc1N1CCCC1)C2 (centres undefined),3%
COc1ccc2[nH]c3c(c2c1)CCNC31CCN(C(=O)COc2ccc(F)cc2)CC1,0%
CN1C[C@H](O)C[C@H]1c1nnc2n1CCN(C(=O)Cc1ccccc1)CC2,-1%
Cc1nc(CN2Cc3nc(OCc4ccc(F)cc4)ccc3OCC2=O)cs1,?
COc1cccc(C(=O)NC[C@@H]2CC[C@H]3C[C@@H]2C3(C)C)c1,-1%[70.6 µM]
COCCNC(=O)C(C)[C@@H]1CC[C@@]2(C)CC[C@H](NC(=O)c3cccc(F)c3)[C@@H](C)[C@@H]2[C@H]1O (some centres undefined),2%
CC(C)C[C@@H]1N[C@H](C(=O)NCc2cccnc2)Cc2c[nH]c3cccc1c23,-1%[70.6 µM]
CN1C[C@@H](NC(=O)NC2CCCCC2)C[C@H]1c1nc(-c2cnccn2)no1,0%[70.6 µM]
O=C(c1ccc(CC2CCN(C(=O)c3ccccn3)CC2)cc1)N1CCOCC1,1%
C=CCN(C)C(=O)C[C@@H]1c2nc(NC(=O)c3c(F)cccc3F)sc2C[C@@H]2[C@](C)(CO)[C@H](O)CC[C@]21C,4%
COc1ccc(C(=O)N2CCN3C(=O)N(C4CCOCC4)C[C@H]3C2)cc1,3%[70.6 µM]
CCOc1ccc2c(n1)CCN(C(=O)c1ccccc1OC)C2,-9%
O=C(c1ccccc1F)N1CCCC2(CN[S+](=O)([O-])c3ccccc3N2)C1 (centres undefined),14%
COc1cc(-c2ccc(C)s2)cc2c1OCCNC2,3%
O=C(NCCc1ccncc1)c1ccc2c(c1)N(S(=O)(=O)c1ccccc1F)CC2,-24%
CCN(CC)c1ncccc1CNC(=O)COC,-3%
CSC(C)C(=O)N1CCC2(CCC(=O)N(CCc3ccccc3)C2)CC1 (centres undefined),6%
COc1cccc(CC(=O)NCCn2ccn3nc(-c4cccc(OC)c4)cc3c2=O)c1,-2%
COc1ccc(-n2c(CN)n[nH]c2=O)cc1OC,8%
Cc1ccsc1C(=O)N1CCCN(C)c2ccccc21,-22%
COc1ccc(-c2nc(N3CCOCC3)cc3c2CN(Cc2ccccc2)C3=O)cc1,-22%[70.6 µM]

# Structures listed so far that contain a halogen (eleven):
SMILES,NPR1 antag
O=C(Nc1ccc(Cl)cc1)C1CC(=O)N(c2n[nH]c3cccc(F)c23)C1 (centres undefined),-1%
CC1=C[C@@H](CNC(=O)c2ccc(F)cc2)[C@H](C(C)C)C[C@H]1Cc1nnc(-c2ccncc2)o1,?
COc1cccc(C(=O)NCCC2CCN(C(=O)Nc3ccc(C)c(F)c3)CC2)c1,-3%
COc1ccc(CCC(=O)NCCC2CCN(C(=O)Nc3cc(F)ccc3F)CC2)cc1,-15%
O=C(Nc1cccnc1)c1cc(-c2ccccc2F)cc2c1OCCN2Cc1cccnc1,?
COc1ccc2[nH]c3c(c2c1)CCNC31CCN(C(=O)COc2ccc(F)cc2)CC1,0%
Cc1nc(CN2Cc3nc(OCc4ccc(F)cc4)ccc3OCC2=O)cs1,?
COCCNC(=O)C(C)[C@@H]1CC[C@@]2(C)CC[C@H](NC(=O)c3cccc(F)c3)[C@@H](C)[C@@H]2[C@H]1O (some centres undefined),2%
C=CCN(C)C(=O)C[C@@H]1c2nc(NC(=O)c3c(F)cccc3F)sc2C[C@@H]2[C@](C)(CO)[C@H](O)CC[C@]21C,4%
O=C(c1ccccc1F)N1CCCC2(CN[S+](=O)([O-])c3ccccc3N2)C1 (centres undefined),14%
O=C(NCCc1ccncc1)c1ccc2c(c1)N(S(=O)(=O)c1ccccc1F)CC2,-24%

# (cont.)
SMILES,NPR1 antag
COCCOC1CCN(C(=O)Cc2c(C)noc2C)CC1,11%
COc1ccc(CN2CCCC3(CNc4ccccc4[S+](=O)([O-])N3)C2)cc1 (centres undefined),3%
CN1C(=O)[C@@H]2C[C@@H](CN2C(=O)Nc2ccccc2)Oc2ccccc21,0%[70.6 µM]
CS(=O)(=O)NC[C@H]1OC[C@@H](NCc2cccnc2)[C@@H]1O,-2%[70.6 µM]
O=c1n(CC2CC2)nc2n1CCN(S(=O)(=O)c1cccs1)C2,5%
Cn1c(CNCC2(COc3cccnc3)C[C@@H](O)[C@@H](O)C2)nc2ccccc21 (some centres undefined),2%
CN1Cc2cccn2CC1CNC(=O)c1nn(C)c2ccccc12 (centres undefined),-8%
CNC(=O)N1CCC(C2CCN(C(=O)c3c(F)cccc3Cl)C2)CC1 (centres undefined),6%
COc1cc(OC)c(NC(=O)Cn2c(C)cc3nc4n(c(=O)c32)CCCCC4)cc1Cl,-6%
CN(CCc1ccccn1)[C@H]1[C@@H]2OC[C@@H](O2)[C@@H](NCc2ccccn2)[C@@H]1O,4%[70.6 µM]
Cc1nccn1CCN(C)C(C(=O)O)c1ccc(C(C)(C)C)cc1 (centres undefined),-1%
COCC(=O)NC[C@H]1CCN(Cc2ccccn2)C[C@H]1N(C)C,1%
O=C1NCCOCCCN(S(=O)(=O)c2ccc3c(c2)CCC3)[C@H]2CCC[C@@H]12,8%
Cc1cc(C(=O)N(C)CC2(C)CCOCC2)nn1C,2%
CCc1ccc(NC(=O)Cn2c(N3CCOCC3)nc(COC)cc2=O)cc1,-5%
CC(C)(Cc1ccc(F)cc1)NC(=O)C1CCC(=O)N(Cc2ccccn2)C1 (centres undefined),-4%
CC(C)CN1CCN(C(=O)c2ccc3c(c2)C(O)CCCCCN3C)CC1 (centres undefined),0%
Cc1ccc(CNC(=O)N2CCC(N3C(=O)C4(CCCCC4)C3c3ccncc3)CC2)cc1 (centres undefined),3%
CC(=O)Nc1ccc(C(=O)N2CCC3(CC2)N=C(c2cccc(Br)c2)NO3)cc1,-26%
CCN1CCN(C(=O)c2ccc3nccn3c2)CC1,-13%[70.6 µM]
CCCN(CC1CCOC1)C(=O)Nc1ccc(C)cc1 (centres undefined),-2%
O=C(c1cccc2[nH]ccc12)N1CCCC(n2cc(-c3nc(C4CC4)no3)nn2)C1 (centres undefined),11µM*
Cc1ccc2nc(CO[C@H]3CN(Cc4ccccn4)C[C@H]3F)[nH]c2c1,-2%[70.6 µM]
Cc1ccc(NC(=O)Cn2c(C)cc3nc4n(c(=O)c32)CCCC4)cc1Cl,-9%
Cc1cc(-c2nn(-c3ccccc3F)cc2CN2CCCC(C#N)C2)c(C)s1 (centres undefined),2%
COc1ncccc1CNC[C@H]1Cn2cc(-c3ccc4c(c3)OCCCO4)nc2CO1,-2%[70.6 µM]
CN(C)[S+](=O)([O-])c1ccc2c(c1)OCCN(Cc1ccncc1F)C2,-16%[70.6 µM]
Cn1cc(-c2ccc(F)cc2)cc1C(=O)O,1%
OC[C@@H]1O[C@H](CNCc2cccc(Cl)c2)[C@H](N2CCOCC2)[C@@H]1O,-1%[70.6 µM]
O=C(NCCc1c[nH]c2ccccc12)c1coc(COc2ccc3c(c2)OCO3)n1,-7%
CN(C1CCOCC1)C1CCc2nn(C)c(=O)n2CC1 (centres undefined),2%
COCC(=O)N1CCC(Oc2ccccc2C(=O)N2CCN(c3ccccn3)CC2)CC1,1%
CN1CC(=O)N(c2ccccc2F)Cc2c(NCCc3ccccc3)ncnc21,0%
Cc1c(C(=O)NC2CC(c3nnc(CO)n3C3CC3)C2)n(C)c2c(C)cccc12 (centres undefined),6%
O=C1CCCCC(CNC(=O)C2(c3ccccc3)CC2)N1 (centres undefined),6%
CC(C)n1nc(OC(C)(C)C(=O)NCCc2cccnc2)c2cc(CN3CCOCC3)ccc21,3%
COc1ccc(OCC(=O)N2CCC(Cc3nc(-c4ccc(F)cc4)no3)CC2)cc1,5.6µM*
Cn1cc(CNC(=O)C[C@@H]2C[C@H]3O[C@H](CNC(=O)Nc4ccc(F)cc4)[C@@H](O)[C@H]3O2)cn1,6%
Cc1ccc(C(=O)N2CCC3(CNc4ccccc4[S+](=O)([O-])N3)C2)cc1 (centres undefined),1%
CC(=O)c1[nH]c(C)c(C(=O)N2CCC3(CC2)[C@H](O)C[C@@H]3OCCO)c1C,-1%

# A section taken from the entries so far:
SMILES,NPR1 antag
CN(C1CCOCC1)C1CCc2nn(C)c(=O)n2CC1 (centres undefined),2%
COCC(=O)N1CCC(Oc2ccccc2C(=O)N2CCN(c3ccccn3)CC2)CC1,1%

# Remaining list, next part:
SMILES,NPR1 antag
COCC(=O)NC1CCC12CCN(C(=O)c1cccs1)CC2 (centres undefined),-1%
CS(=O)(=O)c1ccc(CC(=O)N2CCc3n[nH]c(=O)n3CC2)cc1,2%
CCCc1noc(-c2ccn3c(CNC(=O)c4ccco4)nnc3c2)n1,0%
O=S(=O)(Cc1ccccc1)NC[C@H]1COCc2nc3ccccc3n21,?
CCn1ncc(C(=O)N2CCCn3ccnc3C2c2ccccc2)c1C (centres undefined),0%
C=CCNC(=O)C[C@@H]1CCN(C(=O)c2cccnc2)C[C@@H]1CC,4%[70.6 µM]
Cc1ccc(-c2cnc([C@@H]3COCCN3Cc3cn(C)c4ccccc34)[nH]2)cc1,?
CC(=O)c1cccc(NC(=O)O[C@@H]2CO[C@H]3[C@@H]2OC[C@@H]3NC(=O)Nc2ccccc2)c1,-15%[70.6 µM]
CCc1cccc(NC(=O)N2CCC(Oc3ncccc3C(=O)N3CCOCC3)C2)c1 (centres undefined),-19%
COc1cccc(NC(=O)N[C@H]2CCN3C(=O)[C@@H](Cc4ccccc4)NC(=O)[C@H]23)c1,4%[70.6 µM]
O=C1NC2(CCN(C(=O)c3ccccc3)C2)COc2ccccc21 (centres undefined),-10%[70.6 µM]
COC(=O)[C@H](NC(=O)[C@@H]1C[C@@H](NS(=O)(=O)c2cccc(C(F)(F)F)c2)CCN1C(=O)CCC(=O)O)C(C)C,3%
COc1ccc(NC(=O)Cn2nc3c(cc2=O)CCCCC3)cn1,-3%
COCCn1ncc(N2CCCC(CC(=O)NC3CCCCC3)C2)cc1=O (centres undefined),4%
CCOC(=O)C1CCCN(C(=O)c2coc(COc3cccc(F)c3F)n2)C1 (centres undefined),12%
O=C(c1ccccc1OCC1CCCN(Cc2ccc3[nH]ccc3c2)C1)N1CCCC1 (centres undefined),2%
COc1ccc(N2CC(c3noc(-c4ccccc4OC)n3)CC2=O)cc1 (centres undefined),-7%
CCn1c(C2CCN(C(=O)CC34CC5CC(CC(C5)C3)C4)CC2)n[nH]c1=O,7%
O=C(O)c1ccc(CN2CCOC[C@H]2c2ncc(-c3cccnc3)[nH]2)cc1,12%[70.6 µM]
CCc1nc2c(c(-c3ccc(Cl)cc3)n1)CN(C(=O)Nc1ccccc1)CC2,-6%
CC(C)(O)c1cc(CC2(NCc3cnc4ccccc4c3)COC2)no1,2%[70.6 µM]
O=C(Cc1c[nH]c2ncc(-c3ccccc3)cc12)Nc1cccnc1,-24%[70.6 µM]
CN1C(=O)CC(C(=O)O)C12CCN(Cc1cnn(C)c1)CC2 (centres undefined),3%
COc1ccc(CN2CC3(CCN(C(=O)c4ccc(OC)c(F)c4)CC3)C2=O)cc1,1%
Cc1cccc(CN(CCN2CCCCC2)CC2CCCN(C3CCCC3)C2)n1 (centres undefined),-13%
CCOC(=O)CCNC(=O)N1c2ccccc2CC1c1nc(C(C)C)no1 (centres undefined),8%
Cc1nc(-c2cccc(Cl)c2)n(Cc2ccc(F)c(F)c2)c(=O)c1CCO,-22%
O=C(COc1ccccc1)N1CCC(n2cc(-c3nc(-c4ccccc4)no3)nn2)CC1,0%
